# Source: PubChem
# PABP FP inh: PABP-poly(A) binding inhibition; actives 1% (n = 290,000); P11940; inhibition, % at 35 µM; PABP-poly(A) RNA binding, fluorescence polarization;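 active means 50% or more with normal probe brightness, or confirmed in later tests; inconclusive means above 50% with abnormal brightness, or retests that disagree; inactive means below 50% or failed in later tests; about a fifth of its hits are not listed in these tables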;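 further: calls also rest on retests at 20 µM and on dose response follow-up; controls were probe without protein and protein plus probe with vehicle; some compounds called inactive have numbers as strong as hits; many hits fall short of the cut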
# eIF4H FP inh: inhibitors of RNA binding by human eIF4H; inhibition, % at 35 µM; actives 0.94% (n = 290,000); AID 2012; eIF4H fluorescence polarization binding assay; Q15056;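 active means 50% or more with normal probe brightness, or confirmed in later tests; inconclusive means above 50% with abnormal brightness, or retests that disagree; inactive means below 50% or failed in later tests; about a fifth of its hits are not listed in these tables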;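 further: calls also rest on retests at 20 µM and on dose response follow-up; 0% = protein and probe with vehicle and 100% = probe without protein; strong numbers were not always called active; many hits fall short of the cut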
# HIV Env fusion: HIV envelope-mediated fusion inhibition | HeLa-JRFL Env/CEM21 cell fusion, luciferase | inhibition, % at 12.3 µM | actives 1.1% (n = 360,000) | AID 651610;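 active means mean replicate inhibition score of at least 50 and every replicate individually at or above 50; inconclusive means only one of the two criteria met; inactive means mean below 50 and not all replicates reaching 50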;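 further: 0% = plate neutral controls and 100% = maraviroc near 300 nM; one replicate is shown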
# UUG fidelity: modulators of start codon recognition fidelity in yeast; S. cerevisiae UUG-firefly luciferase reporter, luminescence/redox ratio; activity score, % at 18.7 µM; actives 0.13% (n = 350,000);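 active means replicate mean at a twofold rise or more, about +100% in these data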;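 further: firefly luciferase made from a UUG start codon reports start codon fidelity; reporter light over untreated wells divided by growth signal over untreated wells; some hits fall short of that in this replicate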
# MT1-MMP act inh: inhibitors of human MT1-MMP activation. P50281. HT1080 RFP-PRO-GFP cells, GFP/RFP ratio fluorescence, overnight; percent of plate control window, DMSO zero. GFP/RFP ratio change, % at 20 µM. actives 0.061% (n = 360,000). AID 651647;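 active means GFP/RFP ratio change of at least 30% with cell ATP level not reduced by more than half and red fluorescence within 50% of control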; further: strong numbers were not always called active
#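 system = RFP-PRO-GFP reporter HT1080 cells | dosing = 20 µM single dose, 1% DMSO | timing = overnight cell settling, then overnight compound exposure, 37 °C, 5% CO2 | read-out basis = GFP/RFP fluorescence ratio | controls = DMSO and RFP-L50D-GFP cell wells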
# Rce1 inhib: inhibitors of yeast Ras-converting enzyme; Q03530; calls only; actives 0.27% (n = 290,000); yeast membranes, quenched prenylated peptide cleavage fluorescence;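 active means fall in fluorescence gain of 50% or more versus controls, with final raw signal at or below 3038400; inconclusive means same 50% fall but final raw signal above 3038400; inactive means fall in fluorescence gain under 50%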;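 further: plate controls were neutral control wells for no effect and wells lacking membranes for full effect; tested at 10 µM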
# Target sequence (Q03530 whole entry, looked up): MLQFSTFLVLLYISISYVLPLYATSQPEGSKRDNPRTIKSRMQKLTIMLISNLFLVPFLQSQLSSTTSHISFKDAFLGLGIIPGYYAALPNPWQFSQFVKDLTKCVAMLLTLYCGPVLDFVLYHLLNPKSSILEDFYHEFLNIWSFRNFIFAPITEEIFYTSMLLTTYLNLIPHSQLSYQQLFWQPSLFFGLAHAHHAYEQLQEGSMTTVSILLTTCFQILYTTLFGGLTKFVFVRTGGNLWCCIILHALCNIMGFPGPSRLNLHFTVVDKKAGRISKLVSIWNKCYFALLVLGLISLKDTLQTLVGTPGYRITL
# CSC inhib: cancer stem cell inhibition. cancer stem cell-like cells viability, luminescence. inhibition, % at 7.5 µM. actives 1.1% (n = 300,000). AID 2717;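 active means mean at 75% or more and at least half the replicates too; inconclusive means mean and replicates disagree; tested in HMLE shEcad cells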;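 further: 0% = median of negative and 100% = median of positive control wells; the first replicate is given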
# MT1-MMP act inh RFP: second read-out of MT1-MMP act inh, no call of its own (marks repeat the call); RFP signal change, %; measured here: RFP expression control read;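 0 = vehicle wells; hits needed this value within 50% of zero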
# An asterisk follows results filed as active; i = inactive; ? = inconclusive; / = not tested or not shown.
SMILES,PABP FP inh,eIF4H FP inh,HIV Env fusion,UUG fidelity,MT1-MMP act inh,MT1-MMP act inh RFP,Rce1 inhib,CSC inhib
Cc1cc(NC(=O)CCC(=O)N(c2ccccc2)C(C)C(=O)NC2CCCC2)no1 (stereo unspecified),4,4,4,4,-2,-2,i,-15
COc1ccc(/C=C/C(=O)Nc2nnc(C(C)C)s2)cc1OC,-3,-7,-5,28,4,4,i,0
CC1CCCN(CC(O)CN)C1 (stereo unspecified),4,8,4,/,1,3,i,10
C#CCN1C(=O)C(O)(c2c(C)[nH]c3ccccc23)c2ccccc21 (stereo unspecified),3,-2,-5,-10,-1,4,i,/
COc1ccnc(CSC(N)=Nc2cccc(C(F)(F)F)c2)c1,13,16,9,-18,-3,-3,i,21
COc1ccccc1N1C(=O)CCC1(C#N)c1ccccc1 (stereo unspecified),-8,-2,-14,-6,2,3,i,-10
N#Cc1cccc(C(=O)OCC(=O)NC(=O)NC2CCCCC2)c1,/,/,-3,-7,1,1,i,-20
C[C@]12c3[nH]c4ccccc4c3CCN1C(=O)C(CC(=O)NCc1ccco1)C[C@@H]2C(=O)N1CCCCC1 (stereo partly specified),/,/,-113,12,-5,-2,/,-15
Cc1ccccc1OCC(=O)OC1CCN(C)CC1,-5,-3,/,-9,3,2,i,12
CCOc1ccc(Cl)cc1CSc1ncn[nH]1,-11,1,2,-21,2,6,i,6
O=C(CSc1nnc(-c2ccccn2)n1-c1ccc(Cl)cc1)Nc1ccc2c(c1)OCO2,17,-3,-66,-14,-5,2,i,-4
COC(=O)c1ccc(C2C(C#N)=C(N)Oc3cc(C)n(C)c(=O)c32)cc1 (stereo unspecified),0,0,/,-36,3,3,i,-5
CN1CCN(C(=S)c2cn(Cc3ccccc3)c3ccccc23)CC1,-4,-2,7,-20,-1,6,i,2
CCOc1ccc(-c2cc(N)n(S(=O)(=O)c3ccc(OC)c(OC)c3)n2)cc1,4,-11,6,-11,-3,-2,i,7
O=C(N1CCOCC1)N1CCN(c2nc(-c3ccc(F)cc3)cs2)CC1,-5,-13,26,9,5,-1,i,-9
CC1CCC(NC(=O)Cn2c(=O)[nH]c3ccsc3c2=O)CC1 (stereo unspecified),-2,-5,-53,-21,0,4,i,-4
Cc1cccc(C)c1NC(=O)CNC(=O)c1cccnc1,6,-11,-24,-14,-5,1,i,0
CC(C)CCn1c(Sc2nc3ccccc3s2)nc2c1c(=O)[nH]c(=O)n2C,-5,-12,-48,4,4,-1,i,-16
CC(=O)Nc1ccc(/C=C/c2noc(-c3ccccc3O)n2)cc1,-8,-1,/,-11,-3,-6,i,1
CCOc1ccc(S(=O)(=O)c2c(C(=O)c3ccc(C)cc3)cnc3cc4c(cc23)OCCO4)cc1,1,3,0,-16,-2,-1,i,2
Cc1nc(-c2cccc(S(=O)(=O)N3CCCCC3)c2)cs1,10,-10,9,/,1,-1,i,-8
CC(=O)c1nn(-c2ccc(C)cc2)cc1C(=O)c1cccc(Br)c1,/,/,-10,-14,1,0,i,-2
C[C@H]1CN(C2CCCCC2)C(=O)[C@@H]1CC(=O)Nc1ccccc1,/,/,17,16,0,0,/,/
COC(=O)c1ccc(/C=N/OCC(=O)NCc2ccc(F)cc2)cc1,0,-10,-4,/,-6,-4,i,2
O=C(NCCCn1ccnc1)c1cc([N+](=O)[O-])cc([N+](=O)[O-])c1,-10,10,-2,/,-1,-2,i,-15
CC1(C)CC(C(CC(=O)O)c2ccccc2)CCO1 (stereo unspecified),-3,-5,/,-11,5,0,i,-8
Cc1ccccc1OCC(=O)N/N=C/c1cn(C)c2ccccc12,0,-8,-21,-11,2,3,i,16
COc1cc(/C=C/C(=O)OCC(=O)NCc2ccc(F)cc2)ccc1O,/,/,-119,-24,-4,-10,/,-2
Cc1c(NC(=O)c2ccco2)cccc1C(=O)NN1C(=O)c2ccccc2C1=O,-18,2,-4,/,-2,1,i,2
COC(=O)C1=C(N)N(c2ccccc2C(F)(F)F)C2=C(C(=O)CCC2)C1c1ccc2c(c1)OCO2 (stereo unspecified),3,1,/,-7,1,-5,i,-11
Cn1c(=O)c(C(=O)CSc2nncs2)c(N)n(Cc2ccccc2)c1=O,-1,-4,/,/,0,-5,i,/
O=C1CC2c3ccccc3CCN2C(=O)CN1Cc1ccccc1 (stereo unspecified),/,/,13,-11,3,4,/,/
CC(=O)c1cccc(NCC(=O)Nc2cccc(S(=O)(=O)N3CCCCC3)c2)c1,/,/,-8,-11,6,-13,i,1
Clc1ccccc1-c1csc(Nc2cccnc2)n1,4,-1,-53,20,-3,-7,i,-4
CCCC(C(=O)NC1CCCC1)N(Cc1ccccc1)C(=O)c1snc(C(N)=O)c1N (stereo unspecified),-1,2,23,8,-4,3,i,/
CCc1c(C)nc(N)c(C#N)c1-c1ccccc1,0,-5,7,-10,-6,-6,i,-14
CCOC(=O)N1CCC(n2c(=S)[nH]c3cc(OCC)c(OCC)cc3c2=O)CC1,2,-14,-131,/,1,-3,i,/
N#CC(c1ccccn1)c1ncc(C(F)(F)F)cc1Cl (stereo unspecified),-13,0,2,-12,2,0,i,-4
O=C(COc1ccc(Cl)cc1Cl)Nc1cccc(-c2ccc(N3CCOCC3)nn2)c1,/,/,-109,-18,2,8,i,/
O=C1c2ccccc2NC(c2ccco2)N1NS(=O)(=O)c1ccccc1 (stereo unspecified),-6,-4,9,/,4,5,i,-1
CCN(CC)C(=O)CSc1nc2ccccc2c(=O)n1OC(C)C,4,-4,8,-2,4,4,i,/
CC(SC#N)C(=O)C12CC3CC(CC(C3)C1)C2 (stereo unspecified),-15,-2,-4,/,-7,-8,i,14
COc1cc(OC)cc(-c2c(-c3ccc(F)cc3)c3cc(-c4ccc5[nH]ccc5c4)ccc3n2C)c1,/,/,37,-20,2,-6,/,24
CC(=O)Nc1ccc(C(=O)Nc2ccc(S(=O)(=O)N3CCOCC3)cc2)cc1,2,-22,-2,0,-2,2,i,-1
Cc1ccnc(OC(C(=O)O)C(OCc2ccccc2)(c2ccccc2)c2ccc(C(F)(F)F)cc2)n1 (stereo unspecified),-2,-5,14,-5,-2,-2,i,24
CCOc1ccc(NC(=S)NC2CC3CCC(C2)N3Cc2ccco2)cc1 (stereo unspecified),-5,9,0,/,5,5,i,-4
C/C(=N/NC(=O)CNC(=O)COc1ccccc1)c1ccc(Cl)cc1,0,2,-6,-12,2,-1,i,-8
CCOC(=O)c1c(CN2CCN(CCO)CC2)n(C)c2cc(Br)c(OC)cc12,-5,-13,14,2,-8,-1,i,25
C[C@H](NC(=O)c1cc2c([nH]c3ccccc32)c(-c2ccccc2)n1)C(=O)O,13,4,14,20,6,5,i,-5
Cc1c(C(=O)Nc2ccc3c(c2)OCCO3)sc2nc(-c3ccccc3)cn12,-2,-13,57*,11,3,-21,i,-11
O=c1c2ccccc2ncn1CCCCOc1ccccc1F,-4,-5,-3,4,4,-1,i,/
CC(=O)Nc1cc(C(=O)OC(C(=O)c2ccccc2)c2ccccc2)ccc1C (stereo unspecified),-12,-10,1,-3,7,1,i,-1
Cc1ccc(OCC(=O)NC2CCCC2)c(C)c1,4,4,/,8,2,-5,i,-2
CCCNc1ncc2c(=O)[nH][nH]c(=O)c2n1,/,/,-16,-26,2,6,/,/
CCOC(=O)C(=NCC1CCCO1)NNc1cc(Cl)ccc1Cl (stereo unspecified),-7,-6,11,/,2,1,i,24
CCn1c(C)nc2c1C(=O)c1ccccc1C2=O,9,0,/,-7,1,4,i,19
COc1cc(C#Cc2c(-c3cncn3C)n(C)c3ccc(-c4ccc(CN5CCOCC5)cc4)cc23)cc(OC)c1,/,/,33,-16,-7,-4,/,/
COc1cc(CNCc2ccccn2)ccc1OCc1ccc(Cl)cc1,-5,-1,42,0,0,1,i,6
O=C(NCCCCc1ccccc1)c1cccc(NC(=O)C2CCCC2)c1,/,/,-19,-9,-4,-6,/,/
CC1NC2(C(=O)N(Cc3ccccc3)c3ccccc32)C2C(=O)N(c3ccccc3)C(=O)C12 (stereo unspecified),-12,-6,-16,-7,1,5,i,/

# A different layout for six compounds above:
compound	PABP FP inh	eIF4H FP inh	HIV Env fusion	UUG fidelity	MT1-MMP act inh	MT1-MMP act inh RFP	Rce1 inhib	CSC inhib
C[C@H](NC(=O)c1cc2c([nH]c3ccccc32)c(-c2ccccc2)n1)C(=O)O	13	4	14	20	6	5	i	-5
CCOC(=O)C(=NCC1CCCO1)NNc1cc(Cl)ccc1Cl (stereo unspecified)	-7	-6	11	/	2	1	i	24
CC(SC#N)C(=O)C12CC3CC(CC(C3)C1)C2 (stereo unspecified)	-15	-2	-4	/	-7	-8	i	14
CC(=O)Nc1ccc(C(=O)Nc2ccc(S(=O)(=O)N3CCOCC3)cc2)cc1	2	-22	-2	0	-2	2	i	-1
O=C(NCCCCc1ccccc1)c1cccc(NC(=O)C2CCCC2)c1	/	/	-19	-9	-4	-6	/	/
COc1cc(OC)cc(-c2c(-c3ccc(F)cc3)c3cc(-c4ccc5[nH]ccc5c4)ccc3n2C)c1	/	/	37	-20	2	-6	/	24

# Additional entries follow.
SMILES,PABP FP inh,eIF4H FP inh,HIV Env fusion,UUG fidelity,MT1-MMP act inh,MT1-MMP act inh RFP,Rce1 inhib,CSC inhib
COc1cc(/C=N/NC(=O)C(=O)/C=C2\NC3(CCCC3)Cc3ccccc32)ccc1O,-5,6,-22,/,-2,-4,i,/
CC(=O)c1cccc(NC(=O)CSc2nc(=O)n(CCCN3CCOCC3)c3c2CCC3)c1,/,/,1,-15,0,-1,i,-13
COC(=O)[C@@H](NCc1cccc(CN[C@H](C(=O)OC)C(C)C)c1)C(C)C,4,5,1,-17,-3,-2,i,-3
CC1(C)CCc2c([nH]c3ccccc3c2=O)O1,?,?,/,-20,/,/,i,-20
CCCCn1c(SCC(=O)NC2CCS(=O)(=O)C2)nc2ccccc2c1=O (stereo unspecified),-4,-3,-7,-10,-2,2,i,-1
CCc1ccc(N=C2NC(=O)/C(=C/c3ccc(OCC(=O)O)cc3)S2)cc1,7,5,6,-8,-4,-3,i,-2
Cc1cc(NC(=O)c2cc(-c3ccccn3)nc3ccccc23)no1,0,1,3,-14,2,1,i,0
O=C(NCCc1ccccc1)Oc1ccc(Cl)cc1,2,-6,-2,/,0,0,i,-5
O=C(c1ccc(OC2CCN(CCc3ccccc3)CC2)cc1)N1CCCCC1CCCO (stereo unspecified),-6,2,-24,7,4,-1,i,-5
N#C/C(=C\c1c[nH]c2ccccc12)C(=O)NCC1CCCO1 (stereo unspecified),48,-2,-21,/,0,0,i,10
CCCN(CCC)S(=O)(=O)c1ccc(C(=O)Nc2nnc(-c3cc(OC)cc(OC)c3)o2)cc1,13,14,/,-15,-15,-15,i,57
Cc1ccc(C)c(OCCC(=O)OCC(=O)NC2CC2)c1,/,/,4,-7,-1,0,i,-14
CC(C)NC(=O)c1sc2c(c1C(=O)Nc1cccnc1)CCCC2,0,-3,-6,/,-4,-10,i,-11
COCCN(C(=O)COC(=O)/C=C/c1cccc(C(F)(F)F)c1)c1c(N)n(CC(C)C)c(=O)[nH]c1=O,/,/,-10,-15,1,-1,/,-9
Cc1ccc([C@@H]2C3COCC=C3C(C#N)=C(N)C2(C#N)C#N)o1 (stereo partly specified),?,?,/,/,-55,13,i,/
CC(=O)c1ccc(N2CCN(S(=O)(=O)c3ccc4ccccc4c3)CC2)cc1,/,/,/,-19,4,-10,/,4
Fc1ccccc1OCCCCN1CCCCC1,5,16,-5,-5,1,1,i,-18
Cc1ccc(N2C(=O)c3ccc(N)cc3C2=O)cc1C,2,4,-65,/,1,-2,/,-4
